From PubChem BioAssay
PKD1 inh = inhibitors of human PKD1 kinase, biochemical, fluorescence polarization; Serine/threonine-protein kinase D1 (Homo sapiens), Q15139; PKD1 kinase fluorescence polarization assay; inhibition, %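 (about 10 µM by stock and volumes)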; hit rate 0.056% among 200,000; AID 797, 2007;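 active = inhibition of 50% or more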;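 note: controls were vehicle for no effect and a reference inhibitor for full effect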
RGS16-Gao HTS = modulators of RGS16 binding to Galphao, primary screen, biochemical, human proteins, multiplexed bead flow cytometry | binding response (% of control), % at 10 µM | bead-based flow cytometry RGS16-Galphao binding, fluorescence; actives lie on both sides | hit rate 0.38% among 220,000 | Regulator of G-protein signaling 16 (Homo sapiens) + Guanine nucleotide-binding protein …;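 active = below 25% or above 175%, edge rows of some plates excepted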;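 note: Galphao activated by GDP with aluminum fluoride before binding; 100% = wells without compound and 0% = beads without RGS; some results beyond the cut were filed as inactive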
Target sequence (O15492 whole entry, looked up): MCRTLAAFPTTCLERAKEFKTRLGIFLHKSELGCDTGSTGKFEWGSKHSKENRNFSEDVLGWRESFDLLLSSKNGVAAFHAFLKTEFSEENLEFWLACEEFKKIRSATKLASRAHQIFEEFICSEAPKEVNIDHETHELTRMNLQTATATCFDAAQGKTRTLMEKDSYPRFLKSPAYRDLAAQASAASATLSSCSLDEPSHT
Target sequence (P09471 whole entry, looked up): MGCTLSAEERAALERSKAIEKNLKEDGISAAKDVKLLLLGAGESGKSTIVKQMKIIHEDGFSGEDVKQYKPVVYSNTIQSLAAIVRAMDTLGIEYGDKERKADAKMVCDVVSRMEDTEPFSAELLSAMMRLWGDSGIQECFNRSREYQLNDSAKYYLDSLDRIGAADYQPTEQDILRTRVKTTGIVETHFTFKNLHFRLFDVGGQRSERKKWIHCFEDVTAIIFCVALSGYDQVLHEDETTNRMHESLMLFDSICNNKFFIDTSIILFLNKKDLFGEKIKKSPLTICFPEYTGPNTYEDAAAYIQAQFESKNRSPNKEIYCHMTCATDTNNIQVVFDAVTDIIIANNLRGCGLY
GALR2 agonist = GALR2 receptor agonists, primary screen, cell-based | Galanin receptor type 2 (Homo sapiens), O43603 | GALR2-expressing cells, agonist activation read-out | activation, %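 (tested at 5 µM)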 | hit rate 0.48% among 140,000 | AID 803, 2007;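 active = above mean plus 3 SD of all compounds, about 5% in these data, not always enough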;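 note: 0% = vehicle buffer wells and 100% = reference agonist at full effect; tested in CHO reporter cells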
Target sequence (O43603 whole entry, looked up): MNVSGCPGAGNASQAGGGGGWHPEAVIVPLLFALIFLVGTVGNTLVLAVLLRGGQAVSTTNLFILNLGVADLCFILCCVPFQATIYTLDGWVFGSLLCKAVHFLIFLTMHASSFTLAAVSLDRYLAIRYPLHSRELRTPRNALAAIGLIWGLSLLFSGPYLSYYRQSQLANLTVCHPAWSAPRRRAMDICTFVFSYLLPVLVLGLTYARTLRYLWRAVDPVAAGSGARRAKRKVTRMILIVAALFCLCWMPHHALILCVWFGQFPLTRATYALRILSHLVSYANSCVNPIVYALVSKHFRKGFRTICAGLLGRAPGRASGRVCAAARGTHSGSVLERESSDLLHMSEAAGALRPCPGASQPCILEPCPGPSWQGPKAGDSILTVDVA
HSV augment = enhancers of HSV replication in host cells, fold increase, host cell viability; AID 1956, 2009; maximum fold increase; hit rate 0.005% among 220,000; HSV replication augmentation in cells;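 active = peak rise of 1.5-fold or more in the series; tested in PC3 cells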;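 note: first round at 10 µM; read as green reporter fluorescence; hits show the peak of a series up to 25 µM; 1 = signal of infected wells without compound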
INS promoter inh = inhibitors of insulin promoter-driven GFP, primary screen, imaging, TRM-6 cells (human fetal islet line), eGFP reporter, cell count | reporter expression induced with tamoxifen | inhibition, % at 2 µM | hit rate 0.9% among 130,000 | AID 1273, 2008;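 active = inhibition above the mean plus 3 SD, with well images judged a real hit on visual review, cut at about 60% in these data, passing the limit was not always enough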
INS promoter inh cell count = recorded beside INS promoter inh, whose call it bears; normalized cell count, %; measured here: cell count, toxicity; reference of the scale not given here;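 cells exposed to compound for 48 h; stained nuclei by imaging scaled within each plate; lower means fewer cells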
HSV augment primary fold = second read-out of HSV augment, no call of its own (marks repeat the call); fold increase; compound at 10 µM; measured here: primary screen fold increase 10 uM; tested in PC3 cells;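 GFP signal in the first replicate; 1 = infected wells without compound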
Numbers without * were called inactive; i = inactive; · = not tested or not shown.

SMILES | HSV augment | HSV augment primary fold | RGS16-Gao HTS | INS promoter inh cell count | GALR2 agonist | PKD1 inh | INS promoter inh
CCOC(=O)C1=C(C)NC(=O)NC1C1CC=CCC1 (centres undefined) | i | 0.89 | 101 | 112 | -1.3 | -10 | -55
O=C(COC(=O)/C=C/c1ccc2c(c1)OCO2)NC1CCS(=O)(=O)C1 (centres undefined) | i | 0.97 | 98 | · | · | · | ·
Cc1cccc(-c2nc(C#N)c(NCc3ccco3)o2)c1 | i | 1 | 113 | · | · | · | ·
COc1cc(N=CC2=C(O)c3ccccc3C2=O)cc(OC)c1 | i | 0.97 | 98 | 110 | 1.0 | 6 | -46
O=C(COC(=O)c1ccccc1C(=O)c1ccc(Cl)cc1)NCC1CCCO1 (centres undefined) | i | 0.97 | 101 | · | · | -2 | ·
CCOC(=O)N1CCN(C(=O)CCCCCn2c(=S)[nH]c3cc4c(cc3c2=O)OCO4)CC1 | i | 0.91 | 95 | · | · | -2 | ·
CC1(C)NC(=O)N(Cc2cc(=O)n3ccsc3n2)C1=O | i | 0.99 | 92 | · | · | · | ·
O=[N+]([O-])c1ccccc1/C=N/Nc1nccnc1Cl | i | 0.99 | 91 | 133 | -2.7 | -16 | 25
COc1cc(/C=C/C(=O)OCC(=O)Nc2cc(C)c(C)cc2[N+](=O)[O-])ccc1O | i | 0.94 | 100 | · | · | · | ·
Cc1ccc(C(=O)/C=C/N(C)C)cn1 | i | 1.2 | 91 | · | · | · | ·
CCc1ccc(Nc2nc(N)nc(CSc3nc4ccccc4s3)n2)cc1 | i | 1.1 | 100 | · | 0.9 | 23 | ·
CCOc1c(Cl)cc(CNCC(O)c2ccccc2)cc1OC (centres undefined) | i | 0.95 | 97 | 76 | · | -12 | -22
CCCCCn1c(SCC2CCCO2)nc2cc(C(=O)N3CCC(C(N)=O)CC3)ccc2c1=O (centres undefined) | i | 0.9 | 101 | 130 | -1.2 | -9 | 44
COc1ccc(C(=O)NCc2nnc(SCC(=O)Nc3ccc4c(c3)OCO4)o2)cc1 | i | 0.96 | 99 | · | · | -5 | ·
O=C1Nc2ccccc2/C1=C/C(=O)c1cccs1 | i | 0.62 | 100 | 171 | -2.9 | -5 | 16
O=C(COc1cccc2ccccc12)NNC(=O)CSCCO | i | 0.86 | 109 | 144 | 0.0 | -10 | -11
CSc1sccc1/C=N/NC(=O)c1ccncc1 | i | 1 | 104 | 171 | -1.8 | -7 | -13
N#Cc1nc(COc2cccc(Cl)c2)oc1NCCN1CCOCC1 | i | 1 | 97 | · | · | · | ·
Cn1cnnc1Sc1nc2c(c(=O)n(C)c(=O)n2C)n1Cc1ccccc1Cl | i | 0.87 | 102 | 118 | 0.0 | 2 | 29
N#C/C(=C\c1cccnc1)C(=O)Nc1cccc2ccccc12 | i | 1 | 112 | 68 | -2.2 | -6 | -15
CCOc1ccccc1NC(=S)N1CCC(NC(=O)NC23CC4CC(CC(C4)C2)C3)CC1 | i | 0.95 | 98 | 47 | -0.9 | -5 | 23
O=S(=O)(NC1CCCCC1Nc1ccc(Cl)cc1)c1ccccc1 (centres undefined) | i | 0.94 | 172 | 138 | -3.6 | -14 | -35
O=C1C2C3C=CC(CNS(=O)(=O)c4ccccc4[N+](=O)[O-])(O3)C2C(=O)N1c1ccccc1 (centres undefined) | i | 0.77 | 99 | · | · | 2 | ·
Cc1ccc(N2CC(C(=O)Nc3ccccc3C(=O)NC3CCCCC3)CC2=O)cc1 (centres undefined) | i | 0.96 | 108 | 153 | 1.1 | -4 | -58
O=C(c1ccco1)N1CCN(C(c2ccc(Cl)cc2)c2nnnn2CC2CCCO2)CC1 (centres undefined) | i | 0.97 | 99 | 58 | -1.1 | -8 | 57
Cc1cccn2c(=O)c(C=O)c(N3CCSCC3)nc12 | i | 1 | 96 | · | · | · | ·
COc1ccccc1-c1nnc(SC)n1C | i | 1 | 61 | 71 | · | 3 | -28
O=C1c2cccc3cccc(c23)C(=O)N1CC1CCN(S(=O)(=O)c2ccc(F)cc2)CC1 | i | 0.84 | 107 | 127 | -0.3 | -3 | 0
Cc1ccc(/C=N/NC(=O)c2cccc(S(=O)(=O)Nc3ccccc3Cl)c2)o1 | i | 1.1 | 98 | 99 | -1.9 | -6 | -3
C/[N+]([O-])=C1\Cc2ccccc2C1=O | i | 0.89 | 95 | 53 | -0.8 | -11 | -17
COc1ccc(Nc2nc3cc(C)ccc3cc2C#N)c(OC)c1 | i | 0.75 | 173 | 4 | · | -1 | -200
CCOc1ncccc1C(=O)OCc1nnc(-c2ccccc2)o1 | i | 0.93 | · | 61 | -2.7 | 5 | 14
COCCNc1c([N+](=O)[O-])c(=O)n(-c2ccccc2)c2ccccc12 | i | 0.97 | 101 | 89 | 0.3 | -20 | -25
NC(=S)Cc1nc(-c2ccccc2)cs1 | i | 1.2 | 97 | 113 | -0.1 | -5 | -67
CCn1c(C)nc2cc(C(=O)NNS(=O)(=O)c3cc(Br)ccc3Br)ccc21 | i | 0.96 | 105 | · | · | · | ·
CN(C)S(=O)(=O)c1ccc(Cl)c(NC(=O)COC(=O)/C=C/c2ccc(S(=O)(=O)N3CCOCC3)cc2)c1 | · | · | 101 | 105 | -0.8 | 1 | 38
Cc1ccc(SCc2nc3ccccc3n2CC(=O)Nc2ccc(Cl)cc2)cc1 | i | 1.2 | 97 | · | -1.2 | -6 | ·
Cc1ccc(CN2C3CCCC2CC(NC(=O)c2ccc(C)cc2)C3)cc1 (centres undefined) | i | 0.93 | 104 | · | · | -2 | ·
O=C(O)CC[C@@H](C(=O)O)N1C(=O)c2ccccc2C1=O | i | 0.84 | 100 | · | · | · | ·
O=C(OCc1cc2ccccc2[nH]c1=O)C1CCCCC1 | i | 1 | 67 | 120 | -1.4 | 19 | 0
CCOc1cc(C=C(C(=O)OC)C(=O)OC)ccc1OCc1ccc([N+](=O)[O-])cc1 | i | 0.65 | 96 | 101 | 3.2 | 3 | 57
N#CCCn1nc(-c2ccc(Br)cc2)cc1Nc1ccccc1NC(=O)C(F)(F)F | i | 0.79 | 102 | 146 | -0.8 | 4 | 30
CC(C)(C)NC(=S)NCc1ccco1 | i | 1 | 72 | · | -2.0 | 2 | ·
COc1ccc(/C=N/NC(=O)c2cccc(NC(=O)c3ccccc3Cl)c2)cc1OC | i | 0.79 | 101 | 132 | · | -5 | 36
Cc1cccc(OCC(=O)Nc2cccc(-c3nnc(-c4ccccc4)o3)c2)c1C | i | 1.1 | 93 | 166 | -5.1 | -9 | 0
O=C(c1ccco1)N(Cc1ccc([N+](=O)[O-])cc1)c1ccc(Cl)cc1 | i | 0.99 | 103 | 130 | -2.6 | -4 | 3
Cc1ccsc1C=Nc1c(C)n(C)n(-c2ccccc2)c1=O | i | 0.88 | 100 | 98 | -1.3 | 7 | 29
CC1CCCC(NC(=O)COC(=O)CCC2CCCC2)C1C (centres undefined) | i | 0.89 | 88 | 118 | -1.2 | -2 | -10
CCOc1ccc(C(=O)NCC(=O)OCc2c(F)cccc2Cl)cc1 | i | 0.98 | 101 | 107 | -0.1 | -3 | -193
O=C(CCC1CCCC1)Nc1ccc(Br)cn1 | i | 0.99 | 98 | 119 | -1.4 | 1 | -14
CC(C1CC1)N(C(=O)c1ccccc1O)c1ccccc1 (centres undefined) | i | 0.9 | 109 | · | -2.4 | -15 | ·
Cc1ccc(CN2CCN(CC(=O)NCc3ccc(Cl)cc3)C2=O)cc1 | i | 1 | 99 | 113 | 0.2 | 5 | -52
O=C(O)c1ccc(CSCc2ccco2)cc1 | i | 0.96 | 101 | 241 | -1.2 | -6 | -1
CN1CCN(c2ccccc2NC(=O)c2ccc(-c3ccc(Cl)cc3Cl)o2)CC1 | i | 0.86 | 96 | 112 | -2.0 | 12 | 3
CN(C)C(CNC(=O)CCCc1c[nH]c2ccccc12)c1ccco1 (centres undefined) | i | 0.79 | 96 | 107 | -2.1 | -6 | -61
CCOP(C)(=O)C1(C(=O)OCc2ccccc2)CC1 (centres undefined) | i | 0.98 | 103 | · | -2.9 | 2 | ·

Continuation:
SMILES | HSV augment | HSV augment primary fold | RGS16-Gao HTS | INS promoter inh cell count | GALR2 agonist | PKD1 inh | INS promoter inh
c1csc(CNc2ccc3c(c2)OCCO3)c1 | i | 1.1 | 103 | 89 | -0.9 | -10 | 3
CCOC(=O)CSc1nnc(CNC(=O)c2cccs2)n1-c1cc(OC)ccc1OC | i | 0.84 | 107 | 84 | -0.7 | 2 | 10
CCOC(=O)c1c(/N=C/c2ccc(OC)cc2O)sc2c1CCN(C)C2 | i | 1.1 | 96 | · | · | · | ·
Cc1ccc(NC(=S)Nc2ccc(F)cc2)c(C)c1 | i | 1 | 105 | · | · | -1 | ·
CCOC(=O)c1c(N2C(=O)Nc3ccccc3N2O)n[nH]c1-c1cccc(OC)c1 | i | 0.94 | 106 | 122 | · | 8 | 43
CN(c1ccccc1C(=O)Nc1cccc([N+](=O)[O-])c1)S(C)(=O)=O | i | 0.97 | 101 | 149 | -0.2 | -9 | 29
CCOC(=O)c1cnc2c(c(C)nn2CC)c1NCCN1CCOCC1 | i | 0.98 | 105 | · | · | -1 | ·
CCC(C)(C)NC(=O)C(c1ccc(C)cc1)N(Cc1ccco1)C(=O)Cn1nnc2ccccc21 (centres undefined) | i | 0.91 | 97 | 105 | -1.7 | -4 | -38
CCN1CCCC1CNS(=O)(=O)c1ccc(Cl)c(C(F)(F)F)c1 (centres undefined) | i | 0.88 | 97 | · | · | 0 | ·
C/C(=N\NC(=O)CC1N=C(Cc2ccccc2)NNC1=O)c1ccccc1 (centres undefined) | i | 1 | 104 | 66 | 0.2 | -7 | -55
COc1ccc(N2C(=O)CCC(C(=O)N3CCCCCC3)C2c2ccc(OC)c(OC)c2)cc1 (centres undefined) | i | 0.96 | 99 | 100 | -4.4 | -8 | -27
Cc1ccc2c(CSc3nnc4ccccn34)cc(=O)oc2c1C | i | 1 | 102 | 122 | -1.5 | 0 | -7
Cc1cc(C(=O)c2cnc(/N=C/N(C)C)s2)cc(C)c1O | i | 0.96 | 104 | 125 | -0.9 | -13 | 11
CSc1nc2ccccc2n1CC(=O)Nc1cc(C(F)(F)F)ccc1N1CCOCC1 | i | 0.91 | 113 | 82 | -0.6 | -4 | -51
CC(C)(C)Nc1c(-c2ccc(O)cc2)nc2ccc(Cl)cn12 | i | 0.95 | 101 | · | · | 1 | ·
CCOC(=O)Cn1c(CCC(=O)O)ccc1-c1ccc(F)cc1 | i | 1.2 | 102 | · | -1.6 | -14 | ·
Cc1cc(C)cc(NC(=O)c2c(C)nc3ccccn23)c1 | i | 0.93 | 104 | · | · | -5 | ·
CCNC(=S)N(Cc1cc2cc(C)ccc2[nH]c1=O)C1CCCC1 | · | · | 103 | 90 | -0.9 | -5 | 15
CCCc1cc(C(=O)Nc2cccc(C(C)=O)c2)no1 | i | 0.84 | 102 | · | -0.2 | -1 | ·
COC(=O)c1sc2nc(N)c(C#N)cc2c1N | i | 0.88 | 111 | 123 | 0.2 | 0 | 22
Cc1cccc(C)c1NC(=O)COC(=O)COc1ccc2c(C)cc(=O)oc2c1 | i | 1.1 | 105 | 123* | -1.3 | -4 | 60*
Cn1ccnc1C(O)c1ccc(OCc2ccccc2)cc1 (centres undefined) | i | 0.91 | 112 | 98 | -1.9 | -11 | -26
O=c1sc2ccccc2n1CCCOc1ccccc1 | i | 1 | 106 | 90 | 0.5 | -5 | -46
O=C(Nc1ccc(N2CCOCC2)cc1)C1CCN(S(=O)(=O)Cc2ccccc2)CC1 | i | 0.85 | 95 | · | -1.5 | 1 | ·
CCCCn1nnnc1SCC(=O)Nc1cccc(C)n1 | i | 0.83 | 109 | 131 | -0.4 | 3 | -5

2 records picked at random from those above, as already listed:
SMILES | HSV augment | HSV augment primary fold | RGS16-Gao HTS | INS promoter inh cell count | GALR2 agonist | PKD1 inh | INS promoter inh
CCCc1cc(C(=O)Nc2cccc(C(C)=O)c2)no1 | i | 0.84 | 102 | · | -0.2 | -1 | ·
O=c1sc2ccccc2n1CCCOc1ccccc1 | i | 1 | 106 | 90 | 0.5 | -5 | -46
